Screening results deposited in PubChem BioAssay by several laboratories.
LANA-H2B inh: blockers of LANA interaction with H2A/H2B – biochemical, FP readout, HTS, primary screen. Protein LANA1 (Human herpesvirus 8 type P (isolate GK18)), Q9QR71. cell-free LANA-H2A/H2B peptide, fluorescence polarization. inhibition, % (no concentration beside the values). 320,000 tested, 0.6% active. AID 2629, 2010; in the data active = inhibition mostly above about 10%, no sharp cut-off; inactive = mostly below about 6.7%;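 note: stock transfer was 7.5 nL into about 10 µL; 0% = median of vehicle wells and 100% = median of positive control wells; one replicate is shown; the record names a cut of 25% in any replicate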
A1 inh: caspase 3/7 activation in MEF A1-2A-BIM cells, primary screen, A1 inhibitor project, cell-based, luminescence, HTS; AID 2462, 2010; Caspase-Glo 3/7 luminescence, 3 h; percent of clofoctol response, vehicle zero; caspase activation, % (concentration not given with the values); 330,000 tested, 0.066% active;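 active = over half of replicate activation scores above 10%, or exactly half above 10 with the replicate mean above 10; inconclusive = replicate mean below 10 yet half the replicates above 10; inactive = over half of replicates below 10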;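 note: wells of about 30 µL received 50 nL stock; many hits fall short of the cut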
Calb FLC: C. albicans growth inhibition with fluconazole, primary screen, CaCi-2 strain, Alamar Blue fluorescence; C. albicans CaCi-2 (fluconazole-resistant clinical isolate) + fluconazole, 48 h; growth inhibition, % (no concentration beside the values); 300,000 tested, 0.57% active; AID 1979, 2009;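 active = most replicates above 75%; inconclusive = exactly half above 75%; inactive = most below 75%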;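 note: all wells also contain fluconazole at 8 µg/ml as a sub-toxic cotreatment; 0% = median of DMSO wells and 100% = median of geldanamycin control wells; wells of about 8 µL received 7.5 nL stock; the first replicate is given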
Vif A3G: inhibitors of Vif binding to APOBEC3G peptide, primary screen, biochemical, TR-FRET, GST-Vif 1-94, biotin-A3G peptide, dose response retest (AID 1117319). Virion infectivity factor (Human immunodeficiency virus type 1 group M subtype B (isolate …. TR-FRET GST-Vif / biotin-A3G peptide binding; higher % means a stronger effect; test concentration not given here; strong numbers were not always called active. inhibition, %; hits with a dose series show IC50 in µM. 260,000 tested, 0.57% active;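 active = above the screen mean plus three standard deviations and confirmed in dose response; inconclusive = results disagree or hit not tested in dose response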;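 note: Vif residues 1-94 fused to GST binding biotinylated APOBEC3G peptide 110-148; 0% = full assay without inhibitor and 100% = GST in place of GST-Vif; retest series ran down from 100 µM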
RanGTP-Imp inh: inhibitors of RanGTP-importin-beta interaction, primary screen, biochemical, FRET, CFP-Ran, YFP-importin-beta, homogeneous; 300,000 tested, 1.1% active; inhibition, % (no concentration beside the values); cell-free CFP-Ran/YFP-importin-beta FRET ratio;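 active = most replicates above 15%; inconclusive = exactly half above 15%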;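 note: 0% = DMSO wells and 100% = Ran loaded with GDP instead of GTP; wells of about 40 µL received 100 nL stock; the first replicate is given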
T cruzi inh: inhibitors of intracellular T. cruzi growth, primary screen, luminescence, NIH3T3 host cells; T. cruzi beta-gal in NIH3T3, 90 h; inhibition, % (test concentration not listed); 300,000 tested, 1.4% active;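 active = mean inhibition across valid replicates above about 55%, limit read from the data; inconclusive = mean below that limit but half or more replicates reach it; inactive = mean below it, under half of replicates reach it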;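 note: signal also drops with host cell toxicity which is not excluded here; 0% = plate median of DMSO wells and 100% = zero luminescence signal; higher percent means less beta-gal luminescence so fewer parasites; stock transfer was 50 nL into about 50 µL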
MLL AF4-AF9 inh: inhibitors of AF4 peptide binding to AF9, primary screen, biochemical, AlphaScreen, biotin-AF4 peptide, FLAG-AF9, single point. Protein AF-9 (Homo sapiens), P42568. 350,000 tested, 0.47% active. AID 651704, 2012. inhibition, % at 10 µM;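 active = every replicate reaching a set inhibition limit, whatever the replicate mean, cut at about 25% in these data; inconclusive = mean inhibition reaches that limit but some replicates miss it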;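 note: 0% = plate neutral control median and 100% = total signal loss; the record names both 10 and 1 µM as test concentration; the first replicate is given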
Target sequence (P42568 whole entry, looked up): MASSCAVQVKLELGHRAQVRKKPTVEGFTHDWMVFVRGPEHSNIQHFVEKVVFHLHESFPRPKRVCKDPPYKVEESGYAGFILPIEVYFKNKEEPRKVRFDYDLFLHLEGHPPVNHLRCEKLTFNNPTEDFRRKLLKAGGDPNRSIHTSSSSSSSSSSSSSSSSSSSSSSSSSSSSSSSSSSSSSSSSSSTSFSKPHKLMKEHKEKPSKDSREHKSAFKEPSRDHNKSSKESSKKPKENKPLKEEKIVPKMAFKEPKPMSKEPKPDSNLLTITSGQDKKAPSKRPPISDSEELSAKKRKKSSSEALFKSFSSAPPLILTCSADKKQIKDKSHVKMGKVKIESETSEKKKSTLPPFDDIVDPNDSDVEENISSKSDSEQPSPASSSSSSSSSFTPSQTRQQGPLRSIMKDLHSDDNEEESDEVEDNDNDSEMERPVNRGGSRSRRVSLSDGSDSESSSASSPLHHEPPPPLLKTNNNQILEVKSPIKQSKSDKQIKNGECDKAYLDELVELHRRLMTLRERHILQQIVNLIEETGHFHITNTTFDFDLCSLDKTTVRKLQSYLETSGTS
Beta cell apopt: inhibitors of cytokine-induced beta cell apoptosis, primary screen, luminescence | INS-1E cytokine-induced death, ATP luminescence, 48 h; percent of positive-control rescue, neutral wells zero | 300,000 tested, 0.8% active | protection from apoptosis, % (concentration not given with the values);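 active = all replicates at 75% or more, or half of them and the mean; inconclusive = half reach 75% but not the mean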;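 note: 0% = cytokine-treated negative control wells and 100% = positive control rescue; higher means more ATP so stronger rescue from cytokine killing; wells of about 40 µL received 100 nL stock; the first replicate is given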
* = called active by the depositor; ? = inconclusive; / = not tested or not shown; & = joins results of further samples.

SMILES | LANA-H2B inh | A1 inh | Calb FLC | Vif A3G | RanGTP-Imp inh | T cruzi inh | MLL AF4-AF9 inh | Beta cell apopt
C/C(=N\NC1=N[C@H]2CS(=O)(=O)C[C@H]2S1)c1ccccc1 | 1.8 | -0.4 | -7 | 2% | ? | -13 | -10 | 1
Cc1cc(C)c(C)c(S(=O)(=O)NCC(=O)Nc2ccccc2F)c1C | / | / | 1 | / | ? | -2 | -2.4 | /
CSc1sc(-c2nnc(SCC(=O)Nc3ccc(Cl)cc3)n2C)c2c1C=CCC2 | -12 | -0.5 | 7 | -100% | 0.4 | -24 | -0.2 | 1
O=C(c1ccc(Cl)c(Cl)c1)N1CCOCC1 | -0.1 | 0.0 | 26 | 14% | -5.5 | -4 | / | -3
NC(=O)c1ccc(NCCc2ccccc2)c([N+](=O)[O-])c1 | 0.2 | -0.9 | 0 | 6% | -2.3 | 1 | 1.5 | -3
CN(C)c1cccc(C(=O)OC(C(=O)Nc2ccc(Cl)cc2C(F)(F)F)c2ccccc2)c1 (stereo not given) | 1.8 | -0.6 | 7 | 10% | -1.7 | -2 | / | 1
Cc1ccc(C)c(Cn2c(=O)n(CCC(=O)NCc3ccco3)c(=O)c3ccccc32)c1 | -2.9 | 0.1 | -14 | -5%&-8% | 0.4 | 21 | / | 7
Cc1ccc(S(=O)(=O)N2C(=O)CCC2C(=O)O/N=C(\N)c2ccccc2)cc1 (stereo not given) | -1.5 | -0.8 | -2 | / | 2.2 | -19 | -4.2 | -5
O=C(NCCN1CCOCC1)c1ccc(CSc2nc3ccncc3n2Cc2ccc(F)cc2)cc1 | -5.4 | -0.3 | -9 | ? | 2.1 | -19 | 1.0 | -2
Cn1c(NCC(O)c2ccccc2)nc2c1c(=O)n(Cc1ccc(Cl)cc1)c(=O)n2C (stereo not given) | -1.3 | 0.7 | -13 | 5% | -0.6 | 17 | / | 6
COc1ccc(N(C(=O)c2snc(C(N)=O)c2N)C(C(=O)NC2CCCC2)c2ccc(F)cc2)c(OC)c1 (stereo not given) | 10 | 0.3 | -7 | -6% | 1.2 | 17 | -6.0 | 3
CCOC(=O)c1ccc(-n2c(C)nc3c(cnn3-c3ccccc3C)c2=O)cc1 | 1.5 | 0.5 | 1 | -5% | 3.6 | -12 | -4.6 | -7
CCOC(=O)C1=C(COC(=O)/C=C/c2cc(OC)c(OC)c(OC)c2)NC(=O)NC1C (stereo not given) | 0.9 | 0.9 | 6 | / | -2.7 | -4 | 0.1 | -1
O=C(CC12CC3CC(CC(C3)C1)C2)Nc1nncs1 | 3.7 | 1.4 | 24 | / | 2.7 | 3 | -0.6 | -16
O=C(Nc1oc2ccc(Cl)cc2c(=O)c1-c1ccc(F)cc1)c1ccco1 | -1.3 | -1.6 | -2 | / | 0.0 | -14 | 0.4 | /
O=C(c1cccc(COc2ccc(Cl)cc2Cl)c1)N1CCN(c2ccccn2)CC1 | -2.7 | 0.8 | 19 | -2% | 0.1 | 18 | / | /
CC(=O)N1N=C2/C(=C/c3ccccc3)CCCC2C1c1ccccc1 (stereo not given) | 1.6 | 0.7 | 4 | -2% | -3.9 | 9 | 15 | /
FC(F)Oc1ccc(-c2c[n+]3c(n2-c2ccccc2)CCCCC3)cc1 | -3.1 | ? | 1 | -4% | 1.6 | 36 | 0.8 | 8
CCOc1ccc(S(=O)(=O)N2CCN(C(=S)NCc3ccco3)CC2)cc1 | -1.7 | 0.9 | 3 | 10% | 3.6 | -15 | / | -3
CC(C)c1ccc(S(=O)(=O)N2CCN(C(C)C(=O)N3CCCC3)CC2)cc1 (stereo not given) | -18 | -0.1 | / | 4% | / | / | 1.8 | -4
CCCCCOc1ccc(C(=O)N(Cc2ccco2)C2CCS(=O)(=O)C2)cc1 (stereo not given) | -2.9 | -1.4 | 25 | 18% | -2.3 | -5 | 0.9 | 7
O=C(CN1C(=O)S/C(=C\c2ccc(O)c([N+](=O)[O-])c2)C1=O)Nc1ccc(N2CCOCC2)cc1 | -6.7 | 2.3 | -16 | / | / | / | -0.4 | 8
Nc1cc(C(=O)O)ccc1Nc1ccc(F)c(F)c1 | -3.3 | -1.8 | / | 15% | / | / | / | 8
Cc1cc(-c2cccc(Br)c2)c(C#N)c(N)n1 | -2.6 | 0.7 | -32 | -171% | 4.0 | / | -2.4 | -3
COc1cc(OC)c(NC(=O)c2ccco2)cc1Cl | 3.2 | 0.8 | ? | 2% | ? | -1 | / | -7
CCN(CC)C(=O)C(C)OC(=O)COc1ccc(Cl)cc1Cl (stereo not given) | -6.6 | -0.9 | 17 | / | 1.7 | -5 | -6.0 | -4
COc1ccc(Cl)c(NC(=O)Cn2nnc(-c3ccccc3N)n2)c1 | -1.6 | 0.6 | -11 | 11% | 4.1 | 10 | / | -8
CCN1CCN(C(=O)c2cn(CCOC)c(=O)c3c2c2ccccc2n3C)CC1 | 2.0 | -0.5 | 3 | 0% | 5.3 | 9 | / | /
COc1ccc(CCn2c(C)c(C(C)=O)c3cc(OC(=O)c4ccco4)ccc32)cc1OC | 0.2 | -0.3 | 5 | 5% | -1.9 | 8 | / | -1
N=C1c2ccccc2CN1NC(=O)CC12CC3CC(CC(C3)C1)C2 | 1.8 | -0.5 | -38 | -10% | -2.7 | 5 | 6.2 | 1
O=C(NCCOC(=O)c1ccc(C(=O)OCCNC(=O)c2cccnc2)s1)c1cccnc1 | 3.0 | -0.1 | -11 | -2% | -5.1 | -12 | / | 0
Cc1ccnc(NS(=O)(=O)c2ccc(N3C(=O)Nc4ccccc4N3O)cc2)c1 | -5.6 | 1.9 | 26 | / | -1.2 | -7 | -0.5 | -3
CCc1nnc(NC(=O)CSc2nnc(C)c(=O)n2N)s1 | -5.6 | -0.3 | -2 | / | -1.9 | -4 | -2.0 | -5
CC(C)(C)NS(=O)(=O)c1ccc(CCC(=O)O)cc1 | -4.0 | 0.2 | -1 | 0% | 4.5 | 1 | / | 2
CN(C)C(=O)c1cn(-c2ccccc2)nc1-c1cc2ccccc2oc1=O | 6.9 | -0.6 | 25 | 0% | 0.7 | 8 | -11 | -10
CC1CCCCC1NC(=S)NC(=O)c1sc2ccccc2c1Cl (stereo not given) | 4.2 | -0.2 | -22 | -15% | -1.8 | -1 | -2.8 | -2
CCc1ccc(NC(=O)Cn2c3[n+](c4c(F)c(F)ccc42)CCCCC3)cc1 | -9.2 | 1.1 | -43 | -3% | ? | -10 | 3.0 | 0
Cn1[nH]c(CSc2ccc(Cl)cc2)cc1=O | -0.7 | 0.1 | 4 | 3% | -4.3 | -1 | -1.3 | -1
CCOC(=O)C1CCN(C(=O)c2cc(S(=O)(=O)N3CCc4ccccc43)ccc2OC)CC1 | -0.3 | -0.2 | 2 | 0% | -6.5 | 1 | 0.3 | -8
COc1ccc(NC(=O)CCCc2ccc(OC)c(C)c2)cc1 | 1.5 | -0.2 | -13 | 2% | 3.7 | -3 | -0.9 | /
O=C(CSc1ccccn1)Nc1ccc(Cl)cn1 | -5.4 | -1.0 | -14 | / | 2.5 | 1 | -4.7 | 0
C/C(=N\NC(=O)C(O)c1ccccc1)c1ccc(C)s1 (stereo not given) | 6.8 | -0.2 | -13 | / | 7.2 | -4 | -13 | -1
CN(CC(=O)NCc1ccc(F)cc1)CC(=O)Nc1ccc(Cl)c(C(F)(F)F)c1 | -2.6 | 0.7 | 8 | / | 1.3 | 0 | -1.4 | 14
COCCn1c(SCC(=O)NCc2ccco2)nc2cccnc21 | -1.6 | 2.6 | 5 | 12% | 0.9 | 0 | / | -3
Cc1cccc(NC(=O)Nc2ccccc2)n1 | -5.2 | -2.8 | 0 | / | 0.1 | -7 | 1.4 | /
CN(C)c1nc(N2CCOCC2)nc(N(c2ccccc2)c2ccccc2)n1 | / | / | 21 | 6% | -1.2 | 15 | / | /
O=C(N/N=C/c1ccoc1)c1cc(Br)ccc1O | -7.0 | -5.8 | -7 | / | 1.9 | -19 | -2.2 | -1
CC(=O)Oc1ccc2c(=O)oc(-c3ccccc3)nc2c1 | -0.4 | -6.6 | -9 | / | 0.7 | -13 | -0.9 | -3
COc1ccc(NC(=O)CSCC(=O)Nc2sccc2C#N)cc1 | -0.1 | -0.3 | 0 | 11% | -2.9 | -9 | -1.9 | 1
Cc1ccccc1CN1CCNC(=O)C1CC(=O)NC1CCCCCCC1 (stereo not given) | 2.7 | -0.5 | 3 | / | 4.9 | 36 | 0.9 | -5
Cc1c(-c2ccn[nH]2)cc(NC(=O)c2ccc(Cl)cc2)c(=O)n1N | -4.1 | 0.4 | -16 | -1% | -3.8 | -3 | 1.7 | 0
Cc1ccc(S(=O)(=O)N2[C@@H](c3ccccc3F)C(C(=O)O)=CC[C@H]2c2ccc(Cl)cc2)cc1 | 1.3 | -2.5 | / | / | / | / | -0.3 | 1
CN1CCN(/N=C/c2ccc(-c3ccc([N+](=O)[O-])cc3Cl)o2)CC1 | 4.7 | 0.2 | 1 | 2% | -3.3 | 59* | 36* | -2
Cc1c(Cl)cccc1-n1c(SCC(=O)NCc2cccs2)nnc1-c1ccncc1 | 4.7 | 0.0 | ? | ? | 4.1 | 12 | / | 4
Cc1oc(C(=O)O)cc1CSCc1cc(C(=O)O)c(C)o1 | -1.3 | -1.8 | 1 | 15% | -1.3 | -8 | / | -3
O=C1C2C3C=CC(C4CC34)C2C(=O)N1c1cccc2ccccc12 (stereo not given) | 9.2 | 0.2 | -25 | / | 5.1 | 7 | -11 | -6
CCCn1nnnc1SCC(=O)Nc1ccc(F)cc1 | 0.0 | 0.5 | -1 | -3% | -5.7 | 0 | / | -4
COc1ccc(C(=O)Nc2ccc(Br)cn2)cc1S(=O)(=O)N1CCOCC1 | 5.4 | 1.7 | / | -6% | / | / | -0.7 | 0
CCCCOc1ccc(C(O)C(CN2CCOCC2)c2ccccc2)cc1 (stereo not given) | 0.5 | -0.2 | -7 | 4% | 0.7 | -8 | 3.6 | -7
Cc1ccccc1NC(=S)NCC1CCN(C(C)c2ccccc2)C1 (stereo not given) | -0.8 | -0.1 | -17 | -7% | 2.8 | 58* | ? | 0
CN(C)c1ccc(NC(=O)C(=O)NCCOc2ccccc2)cc1 | 3.2 | 0.5 | -20 | 3% | -0.1 | 5 | 0.0 | -1
Cc1ccc(C(=O)Nc2nc3ccc(S(C)(=O)=O)cc3s2)cc1C | -5.1 | -1.2 | -4 | -32% | -1.6 | -16 | -1.8 | -3
